Screening data deposited in PubChem BioAssay by several laboratories.
Ecoli growth: inhibitors of Escherichia coli growth; OD600, 23 h; active compounds read low; OD600 absorbance (no concentration beside the values); 0.21% of 330,000 active;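 active = OD600 absorbance below the run mean of sample wells minus 3.6 SD, in any replicate, cut at about 0.56 in these data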;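 note: stock transfer was 300 nL into about 60 µL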
LANA-H2B inh: blocks KSHV LANA binding to histone H2A/H2B; inhibition, % (no concentration beside the values); 0.6% of 320,000 active; Q9QR71; cell-free LANA-H2A/H2B peptide, fluorescence polarization; in the data active = inhibition mostly above about 10%, no sharp cut-off; inactive = mostly below about 6.7%;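 note: stock transfer was 7.5 nL into about 10 µL; 0% = median of vehicle wells and 100% = median of positive control wells; one replicate is shown; the record names a cut of 25% in any replicate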
B2AR ag: agonists of human beta-2 adrenergic receptor inducing internalization. P07550. Am2.2-beta2AR cells, FAP receptor internalization, flow cytometry; reference of the scale not given here. response, % (test concentration not listed). 0.43% of 340,000 active. AID 504454;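 active = response above a set limit, near 3 SD of response in nonfluorescent compounds, cut at about 42% in these data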;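 note: stock transfer was 100 nL into about 11 µL; a reference agonist was the positive control; negative values mostly stem from fluorescent compounds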
Target sequence (P07550 whole entry, looked up): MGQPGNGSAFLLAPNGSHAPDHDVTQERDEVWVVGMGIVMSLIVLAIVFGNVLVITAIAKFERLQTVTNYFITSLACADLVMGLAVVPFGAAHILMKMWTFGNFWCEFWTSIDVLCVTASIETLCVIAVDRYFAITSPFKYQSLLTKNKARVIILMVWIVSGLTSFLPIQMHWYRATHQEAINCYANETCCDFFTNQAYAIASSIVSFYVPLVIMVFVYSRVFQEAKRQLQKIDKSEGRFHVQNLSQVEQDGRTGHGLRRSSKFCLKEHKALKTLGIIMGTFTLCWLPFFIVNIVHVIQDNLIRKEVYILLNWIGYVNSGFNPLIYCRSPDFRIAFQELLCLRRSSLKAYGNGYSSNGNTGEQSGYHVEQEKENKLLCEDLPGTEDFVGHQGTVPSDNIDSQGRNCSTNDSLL
Vif TR-FRET: inhibitors of Vif binding to APOBEC3G peptide, primary screen, biochemical, TR-FRET, GST-Vif 1-94, biotin-A3G peptide, dose response retest (AID 1117319) | 0.57% of 260,000 active | TR-FRET GST-Vif / biotin-A3G peptide binding; higher % means a stronger effect; test concentration not given here; strong numbers were not always called active | one-dose inhibition, %; IC50 in µM for titrated hits;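 active = above the screen mean plus three standard deviations and confirmed in dose response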;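 note: Vif residues 1-94 fused to GST binding biotinylated APOBEC3G peptide 110-148; 0% = full assay without inhibitor and 100% = GST in place of GST-Vif; retest series ran down from 100 µM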
Bfl-1 A1 inh: inhibitors of the anti-apoptotic protein A1, read as caspase activation. MEF A1-2A-BIM cells, Caspase-Glo 3/7 luminescence, 3 h; percent of clofoctol response, vehicle zero. caspase activation, % (test concentration not listed). 0.066% of 330,000 active. AID 2462;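 active = over half of replicate activation scores above 10%, or exactly half above 10 with the replicate mean above 10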;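 note: wells of about 30 µL received 50 nL stock; many hits fall short of the cut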
HNF4A DNA FP: change in binding of human HNF4 alpha to DNA | activity change, % at 10 µM | P41235 | HNF4a-FITC DNA binding, fluorescence polarization, 1 h | 0.3% of 360,000 active; in the data active = activity change above about 30%, passing the limit was not always enough;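 note: controls were the assay level and a saturating level of protein; the project sought stronger binding though the title names inhibitors; some compounds called inactive have numbers as strong as hits; positive values seem to mean higher polarization but the record does not say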
Target sequence (P41235 whole entry, looked up): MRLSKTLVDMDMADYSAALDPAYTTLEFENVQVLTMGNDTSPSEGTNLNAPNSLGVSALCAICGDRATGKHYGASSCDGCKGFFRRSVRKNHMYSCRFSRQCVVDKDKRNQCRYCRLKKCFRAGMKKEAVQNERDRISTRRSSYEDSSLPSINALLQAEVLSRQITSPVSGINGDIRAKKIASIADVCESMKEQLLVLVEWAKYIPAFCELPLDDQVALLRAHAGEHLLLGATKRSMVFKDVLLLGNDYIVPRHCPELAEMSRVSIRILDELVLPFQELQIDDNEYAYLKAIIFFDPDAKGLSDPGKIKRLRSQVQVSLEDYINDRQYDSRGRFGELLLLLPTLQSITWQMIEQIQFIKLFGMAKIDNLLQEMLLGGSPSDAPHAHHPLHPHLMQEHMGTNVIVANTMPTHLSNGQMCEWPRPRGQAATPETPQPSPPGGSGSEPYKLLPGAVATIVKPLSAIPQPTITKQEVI
UCH37 DUB inh: blocks the human deubiquitinase UCH37. Q9Y5K5. purified proteasome/UCH37, Ub-AMC cleavage fluorescence. inhibition, % (test concentration not listed). 0.33% of 330,000 active;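 active = mean of two replicates above 20%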;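 note: 0% = compound-free wells with enzyme and 100% = wells lacking proteasome; stock transfer was 100 nL into about 20 µL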
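Test system – human UCH37 enzyme supplied as purified proteasome complex · Incubation – 30 min preincubation with enzyme, 25 min cleavage at room temperature · Detection – AMC fluorescence from Ub-AMC cleavage, excitation 355 nm, emission 460 nm · Benchmarks – no-proteasome wells (full inhibition) and compound-free wells (no inhibition)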
The depositor's hits bear a star; / = not tested or not shown; & = joins results of further samples. Outcome played no part in choosing rows; any-hit rate near 2.1%.

SMILES | Ecoli growth | LANA-H2B inh | B2AR ag | Vif TR-FRET | Bfl-1 A1 inh | HNF4A DNA FP | UCH37 DUB inh
Cc1cccc(NS(=O)(=O)c2ccc3c(c2)Cc2cc(S(=O)(=O)Nc4cccc(C)c4C)ccc2-3)c1C | 0.73 | 0.8 | -1 | -2% | 0.1 | 2.9 | 3.4
COc1ccccc1C(=O)Nc1ccc(N2CCN(Cc3ccccc3)CC2)cc1 | 0.68 | -0.8 | -8 | 9% | -0.7 | -1.3 | -5.5
COc1cccc(CN2CCN(Cc3nc4c(s3)CCCC4)CC2CCO)c1 (stereo not drawn) | 0.7 | -1.3 | -1 | -5% | 0.3 | 1.2 | 3.0
C[C@@H](C(=O)NCC1CC1)[C@H]1C[C@]1(C)[C@H](NC(=O)OCc1ccccc1)c1ccccc1 | / | 2.0 | 10 | 4% | -0.4 | -1.4 | 1.9
COCCNC(=O)c1ccc(CSc2nc3ccccc3s2)cc1 | 0.69 | -3.4 | -11 | -2% | 0.2 | -1.8 | -0.6
O=C(Nc1ccccc1)C1CCCN(C(=O)c2ccc(Cl)cc2)C1 (stereo not drawn) | 0.72 | -2.1 | 1 | -3% | -1.2 | 1.5 | 3.8
O=C(CN1CCCCC1)Nc1scc2c1c(=O)oc1ccccc12 | 0.64 | -3.3 | -3 | -21% | 0.1 | 0.3 | 1.6
Cn1c(SCC(=O)Nc2cccc3ccccc23)nc(O)cc1=O | 0.7 | -3.7 | -2 | 10% | -0.2 | -2.0 | 11
O=C(CN1C2CCCC1CC(NC(=O)c1ccccc1)C2)Nc1ccccc1 (stereo not drawn) | 0.69 | -0.9 | -8 | -1% | 0.0 | 2.8 | 3.0
O=C(CCC(=O)OCC(=O)c1ccc(F)cc1)NC1CCCCC1 | 0.74 | 1.5 | -7 | 68% | 1.9 | 1.0 | -1.6
COC(=O)c1ccc(N=C2S/C(=C\c3cc(C)n(-c4cccnc4)c3C)C(=O)N2C)cc1 | 0.75 | -16 | 31 | 3% | -0.4 | -0.1 | -0.1
O=C(Nc1ccc2c(c1)OCO2)c1c(Cl)nc2sccn12 | 0.78 | -2.8 | -2 | 1% | -0.8 | -1.3 | -3.0
CCCc1cc(=O)oc2cc(C)cc(OC(C)C(=O)NCc3ccncc3)c12 (stereo not drawn) | 0.67 | 7.4 | 4 | / | 0.6 | 0.5 | -142
CN(CC(=O)Nc1ccc(Cl)cc1)CC(=O)Nc1cc(Cl)ccc1C#N | 0.63 | -3.5 | -9 | -4% | 0.3 | -0.4 | 1.0
CC(Sc1ccsc1[N+](=O)[O-])C(=O)N1CCN(c2ccccn2)CC1 (stereo not drawn) | 0.67 | 1.5 | -3 | / | 0.3 | 3.5 | 3.4
CC1Cn2c(nc3sc4c(c3c2=O)CC(C)(C)OC4)N1CCO (stereo not drawn) | 0.71 | 3.4 | -2 | -10% | 0.1 | -2.5 | 2.0
CCOC(=O)c1[nH]c2ccc(OCC)cc2c1NC(=O)CN1CCN(c2ccccc2)CC1 | 0.71 | 2.7 | 0 | 19% | 0.1 | 1.5 | -39
N#C/C(=C\c1ccc(-c2ccc([N+](=O)[O-])cc2Br)o1)C(=O)N1CCN(c2ccccc2)CC1 | 0.72 | 2.1 | 8 | / | 0.2 | 5.2 | 11
O=C(N/N=C/c1ccccc1C(=O)O)C(=O)N1CCCCC1 | / | 0.3 | 1 | 2% | -0.2 | 1.5 | /
COC(=O)c1cc(S(=O)(=O)N2CCOCC2)ccc1Sc1ccccc1N | 0.65 | 1.5 | 3 | 14% | -0.5 | 0.1 | 1.9

Part of the list above, limited to HNF4A DNA FP and LANA-H2B inh.
structure	HNF4A DNA FP	LANA-H2B inh
O=C(Nc1ccccc1)C1CCCN(C(=O)c2ccc(Cl)cc2)C1 (stereo not drawn)	1.5	-2.1
O=C(CN1CCCCC1)Nc1scc2c1c(=O)oc1ccccc12	0.3	-3.3
Cn1c(SCC(=O)Nc2cccc3ccccc23)nc(O)cc1=O	-2.0	-3.7

(next part)
SMILES | Ecoli growth | LANA-H2B inh | B2AR ag | Vif TR-FRET | Bfl-1 A1 inh | HNF4A DNA FP | UCH37 DUB inh
O=C(CCCC(=O)N(CC(=O)NC1CCCCC1)Cc1ccc2c(c1)OCO2)Nc1ccccn1 | 0.76 | -0.7 | -11 | -2%&1% | -0.4 | 3.3 | -4.4
COC(=O)c1ccccc1NC(=S)NC(=O)c1ccc2c(c1)OCO2 | 0.69 | -12 | -9 | / | -0.5 | -2.9 | -3.7
CSCCC(NC(=O)c1ccco1)C(=O)N1CC(C)OC(C)C1 (stereo not drawn) | 0.65 | 0.0 | 7 | -7% | 1.1 | -0.7 | 6.6
CCCSc1nnc(-c2ccccc2NC(=O)CC)c(=O)[nH]1 | 0.66 | -3.0 | 3 | -2% | 0.3 | 1.1 | 0.6
COC(=O)c1cc2c(N)c(C(=O)c3ccc(Cl)cc3)sc2nc1C(OC)OC | 0.69 | -12 | 4 | -4% | -0.3 | 8.1 | -2.8
CCC(=O)N=c1sc2ccccc2n1-c1ccccc1 | 0.69 | 3.5 | 1 | 27% | -0.5 | -3.6 | 3.3
CS(=O)(=O)N(CC(=O)NCCSCc1ccccc1Cl)c1ccccc1F | 0.67 | -1.9 | 2 | / | -0.4 | 2.9 | 2.3
COc1cccc(-c2noc(-c3ccc4c(c3)OCO4)n2)c1 | 0.73 | 0.2 | 9 | -8% | -9.9 | 4.6 | 0.3
O=C(NCc1cccc(Br)c1)c1cc(-c2ccccc2)nn1CC1CC(c2cccnc2)=NO1 (stereo not drawn) | / | -1.0 | -1 | / | -0.3 | 4.4 | -0.3
Cc1ccc(OC(=O)c2ccc(C)c([N+](=O)[O-])c2)cn1 | 0.68 | 2.7 | -1 | / | -0.6 | -2.1 | 2.4
CCN(C(=O)c1ccc2c(SCC(=O)O)c3c(nc2c1)CCC3)c1cc(Cl)ccc1OC | 0.72 | 4.2 | -6 | 0% | -0.2 | 2.2 | 3.4
CCCC(=O)NC(=S)NNC(=O)c1ccc([N+](=O)[O-])cc1 | 0.63 | 2.7 | -4 | 4% | 0.5 | 4.8 | 6.1
COC(=O)c1sccc1NC(=O)c1ccc(Br)s1 | 0.77 | 1.9 | 0 | -55% | 0.2 | 1.1 | -4.8
COc1ccccc1C1CC(=O)NC(C)=C1C(=O)OC(C)C (stereo not drawn) | 0.66 | 1.0 | -3 | / | -0.5 | 0.8 | 2.0
C=CCC[C@H](Cc1ccc(F)cc1)C(=O)OC[C@H](Cc1c[nH]c2ccccc12)NC(=O)[C@@H](CC=C)CC(=O)N[C@H](CO)Cc1ccccc1 | / | 2.4 | 12 | / | -0.7 | -0.7 | 3.2
O=C(Oc1ccc(Br)cc1)c1cccc(S(=O)(=O)N2CCOCC2)c1 | 0.65 | -3.0 | 8 | / | 0.5 | 4.1 | 2.1
COc1cc(C(=O)OCC(=O)Nc2ccc(N3CCOCC3)cc2)ccc1OCC(C)C | 0.62 | 0.6 | -1 | 2% | -0.3 | 2.8 | 1.7
CNC(=O)c1ccccc1-c1cn(C)c2ccccc2c1=O | 0.69 | 1.9 | 3 | 3% | -0.1 | -3.3 | 6.0
N#Cc1c(NC(=O)C2CC(c3ccccc3O)=NO2)sc2c1CCC2 (stereo not drawn) | 0.7 | -3.9 | 26 | / | -0.5 | 5.7 | 2.2
Cn1cc(CN(CCO)Cc2cccs2)c(-c2cccc(Cl)c2)n1 | 0.69 | 1.5 | -5 | 0% | 0.6 | 0.2 | 5.6
CCOC(=O)N1CCN(c2c(NCCCN3CCCCCC3)c(=O)c2=O)CC1 | 0.75 | 0.4 | 5 | 26% | 0.7 | -1.7 | 3.4
CC(Oc1ccccc1)C(=O)Nc1cccc(NC(=O)c2ccco2)c1 (stereo not drawn) | 0.69 | 4.2 | -19 | / | 0.3 | -4.3 | -0.9
c1ccc(C(c2nnnn2C2CCCC2)N2CCN(c3nc4ccccc4s3)CC2)cc1 (stereo not drawn) | 0.7 | -8.3 | -3 | 0% | 2.2 | 3.9 | 1.8
Cc1ccc(NC(=O)NC2CC(=O)N(c3ccc4c(c3)OCCO4)C2)cc1F (stereo not drawn) | 0.63 | -3.8 | -11 | 10% | 0.9 | 1.4 | 3.0
Cc1ccc(C)c(-n2c(SCC(=O)NC(C(=O)O)C(C)C)nnc2-c2cccc(Cl)c2)c1 (stereo not drawn) | 0.71 | -3.5 | 1 | -6% | 0.2 | 6.8 | 1.8
O=C(NN=C1CCCC1)c1cccs1 | 0.69 | -2.1 | 5 | / | 0.3 | 1.7 | 2.8
CCCCOc1ccc(NC(=O)CSCC(=O)OCC)cc1 | 0.66 | -2.7 | 15 | 1% | 1.1 | 4.5 | -3.7
CCOC(=O)N1CCN(S(=O)(=O)c2ccc3[nH]c(=O)oc3c2)CC1 | 0.69 | -1.5 | 19 | 3% | -0.2 | 1.0 | 4.2
O=C(CSc1ccc(F)cc1)NCCSc1ccccc1 | 0.64 | -1.3 | -5 | 20% | 0.6 | 1.4 | -3.3
O=c1c2c(-c3ccccc3)ccnc2[nH]n1-c1ccccc1 | 0.67 | -3.7 | 2 | / | -2.1 | 1.6 | 1.0
CCc1cccc(CC)c1NC(=O)CNCc1cccs1 | 0.67 | / | -8 | / | / | 3.1 | 1.7
Cc1nc2ccc(NC(=S)N3CCCC3)cc2nc1C | 0.69 | -2.8 | -9 | / | 0.4 | -2.1 | -4.8
COc1ccc(/C=C(\NC(=O)c2ccccc2)C(=O)N2CCCCC2)cc1OC | 0.69 | 3.6 | -5 | / | -0.4 | -0.1 | 3.0
O=S(=O)(c1ccccc1F)N1CCC(c2nc3ccccc3[nH]2)CC1 | 0.59 | 2.7 | -18 | / | 1.2 | -0.3 | 0.9
C/C(=N\OCC(=O)Nn1c(C)nc2ccccc2c1=O)c1ccccc1 | / | 1.1 | -9 | 0% | -0.6 | 1.9 | /
Cc1ccccc1-c1nnc(SCC(=O)Nc2ccc(Cl)cc2)n1N | 0.63 | 4.2 | 4 | -1% | 1.0 | 3.0 | 1.0
COC(=O)c1c(C)[nH]c(C(=O)CSc2ncnc3sc(-c4ccccc4)cc23)c1C | 0.73 | 5.3 | -3 | / | 1.1 | -0.5 | -0.8
O=C(c1ccc(COc2ccc(Br)cc2)o1)N1N=C(C(F)F)CC1(O)C(F)F (stereo not drawn) | 0.7 | -0.8 | 3 | -2% | 0.2 | 1.1 | 2.8
Cc1cc(C)c2c(c1)SC1=NC(c3ccccc3)(C(F)(F)F)NC(=O)N12 (stereo not drawn) | 0.68 | -3.2 | 6 | 0% | -2.0 | 2.0 | 2.3
COc1ccc(C(=O)/C=C(/C)N(C)C)cc1 | 0.72 | -6.9 | 4 | 3% | -0.3 | 2.9 | 6.5
CC(C)c1ccc(NC2CCCN(C(=O)CC3CCCC3)C2)cc1 (stereo not drawn) | 0.7 | -1.4 | 1 | 5% | 1.5 | -0.3 | 4.7
CN1CCN(c2ccc(Nc3ccnc4cc(Cl)ccc34)cc2)CC1 | / | 2.5 | 12 | / | 0.4 | -1.4 | /
O=C(Nc1ccccc1N1CCCC1)C1CCN(S(=O)(=O)c2ccc(F)cc2)CC1 | / | -0.5 | 1 | / | 3.0 | 1.6 | /
Cc1ccc(NC(=O)CN2CCN(Cc3ccccc3)CC2)cc1 | 0.67 | -2.1 | -1 | / | 0.1 | 0.5 | 2.4
CN(C)c1ccc(/C=C/c2ccc3ccccc3n2)cc1 | 0.72 | -10.0 | -54 | -6% | -8.9 | 79 | -104

Quoted from above (two entries):
SMILES | Ecoli growth | LANA-H2B inh | B2AR ag | Vif TR-FRET | Bfl-1 A1 inh | HNF4A DNA FP | UCH37 DUB inh
CN1CCN(c2ccc(Nc3ccnc4cc(Cl)ccc34)cc2)CC1 | / | 2.5 | 12 | / | 0.4 | -1.4 | /
O=C(Nc1ccccc1N1CCCC1)C1CCN(S(=O)(=O)c2ccc(F)cc2)CC1 | / | -0.5 | 1 | / | 3.0 | 1.6 | /
